Compound activity (PubChem)
Bst PK mod = pyruvate kinase (B. stearothermophilus) modulation. actives 1.2% (n = 51,000). partly purified Bacillus stearothermophilus pyruvate kinase, luminescence ATP production; ribose 5-phosphate activator present at AC10. Potency, µM; in the data active means potency below about 11 µM; inconclusive means mostly about 12 µM to 25 µM; inactive means weaker than that;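 the screen sought inhibitors and activators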;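 also: potency is read from the fitted curve at half-maximal effect; scaled between full activation by ribose 5 phosphate and full inhibition by luteolin; about four in five hits inhibit and the cells do not say which; series up to 57 µM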
TsaE inh = displaces an ADP probe from E. coli YjeE (TsaE). P0AF67. purified YjeE, fluorescence polarisation of a bound ADP probe. AID 605. actives 0.05% (n = 71,000). Potency, µM; active = well fitted falling curve; inconclusive = weaker or top-dose-only fall, or a rising curve; inactive = flat or poorly fitted curve;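 also: top concentration of the series not given in the record; excess ADP was the control for the full effect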
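Purified YjeE (10 uM) with BODIPY Texas Red-labeled ADP probe (2 uM); compounds pin-transferred, 15 min at room temperature. Binding inhibition read as decreased fluorescence polarization; ADP titration as control.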
Active calls of the source: *; i = inactive; ? = inconclusive; . = no result given. This is a subset. The share of hits here may be higher or lower than overall.

smiles,Bst PK mod,TsaE inh
Cc1nc2sc(C(c3cccs3)N3CCN(c4ccccc4)CC3)c(O)n2n1 (centres undefined),.,i
CCn1c(=O)c(C(=O)NCCN2CCCCC2)c(O)c2ccccc21,>57,i
O=C(COc1ccccc1Cl)NCc1ccncc1,.,i
Cc1cc2c(cc1Cl)N(C(=O)Nc1ccnc3ccccc13)CC2,.,i
CCOc1ccc2[nH]c(=O)c(CN(CCc3ccccc3)C(=O)c3cnccn3)cc2c1,>57,?
Cn1c(=O)c2c(ncn2CC(=O)NC(C)(C)C)n(C)c1=O,>57,i
Cc1ccc2nc3c(cc(C(N)=S)c(=N)n3CCCOC(C)C)c(=O)n2c1,>57,i
CCCCOn1c(C)c(C(=O)OCC)c2c3nonc3ccc21,>57,i

Remaining list, next part:
smiles,Bst PK mod,TsaE inh
O=C1OC(Nc2nc3ccccc3s2)c2ccccc21 (centres undefined),>57,i
Cn1c(NC(=O)c2ccc(Br)o2)cc(=O)n(C)c1=O,>57,i
COc1nc(NCCc2ccc(OC)c(OC)c2)nc(NC(C)(C)CO)n1,>57,i
Cc1cccc(C)c1NC(=O)CSc1nnc(-c2ccncc2)n1Cc1ccco1,>57,i
COc1cccc(C(=O)N2CCN(Cc3ccccc3C(F)(F)F)CC2)c1,>57,i
O=C1C=C(NCCN2CCOCC2)CC(c2ccccc2)C1 (centres undefined),>57,i
CC(C)N=C(NC#N)SCC(=O)NC(C)(C)C,>57,i
CCOC(=O)C1=C(CNCc2ccc(C)cc2)NC(=O)NC1c1ccc(OC)cc1 (centres undefined),>57,i

Additional records follow.
smiles,Bst PK mod,TsaE inh
CCCCSc1nnc(CCC)n1N,>57,i
CCOC(=O)c1c(C)[nH]c(C(=O)CN2C(=O)NC(C)(c3ccc(C)cc3)C2=O)c1C (centres undefined),>57,i
CC1C(=O)CCC1(C(=O)O)c1ccccc1 (centres undefined),>57,i
O=C(c1cc2c(s1)CCCC2)n1cccn1,i,i
CSCCC(C(=O)Nc1ccc2c(c1)OCO2)N1C(=O)c2ccccc2C1=O (centres undefined),>11,i
CCN1CCN(CCCNC(=O)c2ccc3c(c2)NC(=O)c2ccccc2S3)CC1,.,i
Clc1ccccc1OCc1nn2c(-c3ccncc3)nnc2s1,>57,i
CCCS(=O)(=O)N1CCC(C(=O)N2CCN(Cc3ccccc3)CC2)CC1,>57,i

More entries.
smiles,Bst PK mod,TsaE inh
CC(=O)N1CCc2cc(S(=O)(=O)N3CCc4ccccc4C3)ccc21,>57,i
C/C(N)=C(/C#N)C(=O)COC(=O)C1Cc2ccccc2CN1S(C)(=O)=O (centres undefined),>57,i
O=C(O)CNS(=O)(=O)c1cc(Cl)c(Cl)cc1Cl,i,i
Cc1cc(NC(=O)c2cc(CC(C)C)on2)no1,.,i
CCOCCCNS(=O)(=O)c1ccc2c(c1)CCN2C(C)=O,>57,i
CCc1ccc(CCC(=O)Nc2sc3c(c2C#N)CCCC3)o1,>57,i
Cc1cc(C(=O)N2CC(C)CC(C)C2)n(-c2ccccc2)n1 (centres undefined),.,i
O=C(CSc1nnc(Nc2ccccc2F)s1)NCc1ccco1,>57,i

Further compounds
smiles,Bst PK mod,TsaE inh
COc1cc(C(=O)Nc2cccc(-c3nc4cc(C)ccc4o3)c2C)cc(OC)c1OC,.,i
CCC(=O)n1nc(-c2ccco2)nc1N,>57,i
O=C(Nc1cccc(F)c1)C1CC(=O)N(c2ccc(Br)cc2)C1 (centres undefined),>57,i
CCCCN(C)CCNC(=O)Cn1ncc2c(=O)oc3ccc(C)cc3c21,.,i
COC(=O)c1cc2ccsc2n1CC(=O)Nc1cc(Cl)ccc1OC,>57,i
Cn1c2ccccc2c2c(C(=O)N3CCN(c4ccccc4)CC3)cn(C3CCCC3)c(=O)c21,>57,i
O=C(c1n[nH]c(=O)c2ccccc12)N1CCN(c2ccccc2)CC1,>57,i
C[C@@H]1C=C[C@](Cc2ccccc2)(C(=O)NCCN2CCOCC2)N1C(=O)c1ccccc1,.,i

Next section:
smiles,Bst PK mod,TsaE inh
CCOc1ccccc1CNC(=O)C1CCN(c2nc3ccccc3o2)CC1,>57,i
CCO/C=C/C(O)(CNC(=O)COc1ccccc1F)C(F)(F)F (centres undefined),>57,i
CN1CCN(CCCC(=O)c2ccc(F)cc2)CC1,>57,i
COc1cccc(Nc2ncc(C(=O)O)c3ccccc23)c1,>57,i
O=C(CSCc1ccco1)c1cccs1,>57,i
CCOCCn1c(CN(Cc2ccccc2)Cc2ccccc2)nc2c1c(=O)[nH]c(=O)n2C,>57,i
C[C@@H](C(=O)Nc1ccc2ccccc2c1)[C@H]1C[C@]1(C)[C@H](NS(=O)(=O)c1ccc(-c2ccccc2)cc1)c1ccccc1,.,i
O=C(NCc1ccccc1)N[C@@H](Cc1c[nH]c2ccccc12)C(=O)O,>57,i

Structural class: the compounds so far containing a cyano group
smiles,Bst PK mod,TsaE inh
CC(C)N=C(NC#N)SCC(=O)NC(C)(C)C,>57,i
C/C(N)=C(/C#N)C(=O)COC(=O)C1Cc2ccccc2CN1S(C)(=O)=O (centres undefined),>57,i
CCc1ccc(CCC(=O)Nc2sc3c(c2C#N)CCCC3)o1,>57,i

Retrieved one by one from above (3):
smiles,Bst PK mod,TsaE inh
COc1nc(NCCc2ccc(OC)c(OC)c2)nc(NC(C)(C)CO)n1,>57,i
CC(C)N=C(NC#N)SCC(=O)NC(C)(C)C,>57,i
CCO/C=C/C(O)(CNC(=O)COc1ccccc1F)C(F)(F)F (centres undefined),>57,i

(cont.)
smiles,Bst PK mod,TsaE inh
CCCC(CCC(=O)Nc1ccc(C(=O)OC)cc1)C(=O)O (centres undefined),>26,.
Cc1nc2ccccc2n1CC(O)Cn1c(C(F)(F)F)nc2ccccc21 (centres undefined),>57,i
Cc1ccccc1CN1CCN(CC(=O)NCc2ccco2)C1=O,>57,i
O=C(CSc1nnc(-c2cccs2)n1-c1ccccc1)NCc1ccco1,>57,i
CCC(=O)c1ccccc1OCCCN1C(=O)NC(C)(C)C1=O,>57,i
O=C(c1ccccc1)N1CCCCC(S(=O)(=O)c2ccccc2)C1=O (centres undefined),>57,i
COC(=O)c1ccccc1NC(=O)NCC1CCCO1 (centres undefined),>57,i
Cc1cc(NCCCN2CCOCC2)n2nc(C)c(-c3ccccc3)c2n1,>57,i

Going on with the list:
smiles,Bst PK mod,TsaE inh
Cc1ncc(CSc2nnnn2-c2ccccc2)c(N)n1,>57,i
COc1ccccc1NC(=O)Cn1cnc2c1c(=O)n(C)c(=O)n2C,.,i
CCN(CC)S(=O)(=O)c1cccc(-c2nnc(C(=O)c3ccc(C(F)(F)F)cc3)o2)c1,>57,i
CCCCOC(=O)c1ccc(NC(=O)C(CCS(C)(=O)=O)NC(C)=O)cc1 (centres undefined),>57,i
O=C(Nc1nccs1)C12CC3CC(C1)CC(C(=O)Nc1nccs1)(C3)C2,.,i
O=c1[nH]c(-c2cccs2)nc2ccccc12,.,i
CN1CCN(CCC(=O)N2c3ccccc3Sc3ccc(Cl)cc32)CC1,>26,.
O=c1c(-c2cccs2)nc2cnc(N3CCOCC3)nc2n1Cc1cccs1,.,i

Remaining list, next part:
smiles,Bst PK mod,TsaE inh
C=CCn1c(SCC(=O)c2cc(C)n(CC3CCCO3)c2C)nnc1-c1ccccc1 (centres undefined),>57,i
O=C1c2ccccc2C(Cc2ccncc2)(Cc2ccncc2)c2ccccc21,.,i
CN(C)CCOC(c1ccccc1)c1ccccc1 (tested in a mixture with another compound),>26,i
COC(=O)CSc1nnc(CNC(=O)c2cccc(C)c2)n1-c1ccccc1OC,>57,i
Cc1cccc(NC(=O)c2cc3c(n(-c4ccccc4)c2=O)CCCC3=O)n1,>57,i
Cn1c(=O)c2c(nc(CN3CCN(c4ccccc4)CC3)n2CCN2CCOCC2)n(C)c1=O,>57,i
N#CCCn1c(=O)c(CCc2ccccc2)nc2cnc(N3CCOCC3)nc21,.,i
O=C(Cl)c1c(Cl)cccc1Cl,.,i

Further records
smiles,Bst PK mod,TsaE inh
O=C(CN1C(=O)C2CCCCN2C(=O)c2ccccc21)N1CCCc2ccccc21 (centres undefined),>57,i
c1ccc(N=P(N2CCOCC2)(N2CCOCC2)N2CCOCC2)cc1,>57,i
Cc1csc(NC(=O)c2cccc(Cn3nc(C)c(Br)c3C)c2)n1,.,i
[N-]=[N+]=Nc1ccc(C(=O)CSC[C@@H](NC(=O)CC[C@@H](N)C(=O)O)C(=O)NCC(=O)O)cc1,.,i
CN(C)c1ccc(-c2cncnc2-n2ccnc2)cc1,.,i
COc1ccc(CCNc2oc(-c3ccc(OC)c(OC)c3)nc2C#N)cc1,>57,i
COc1cccc(-c2ccc3ncnc(N4CCOCC4)c3c2)c1,.,i
CCOCCOC(=O)C1=C(C)N(C)C(=O)NC1c1cc(Cl)c(O)c(OCC)c1 (centres undefined),>57,i

Additional records follow:
smiles,Bst PK mod,TsaE inh
O=C(Nc1ccccc1)N1CCn2c(nc3ccccc32)C1,>57,i
Nc1nc(-c2ccc3c(c2)OCCO3)cs1,i,i
Cn1nnnc1SCC(=O)Nc1ccc(Oc2ccccc2)cc1,>57,i
C#CCn1cnc2c(cnn2-c2ccc(C)c(C)c2)c1=O,>57,i
O=C(CCCN1C(=O)c2cccnc2C1=O)N1CC(=O)N(CCc2ccccc2)C(=O)C1,>57,i
Cc1c(Cl)cccc1NC(=O)Cn1cccc1,>57,i
Cc1cc(N2CCOCC2)nc2cc(O)ccc12,.,i
C=CC(O)(C#CCN(CC)CC)c1ccccc1 (centres undefined),>57,i

The list goes on.
smiles,Bst PK mod,TsaE inh
Cc1c(Cc2ccccc2)sc(N)c1C(N)=O,.,i
CNC(=O)CCn1nc(-c2ccccc2)c2ccccc2c1=O,>26,.
O=C1Nc2cc(C(=O)N3CCOCC3)ccc2SC1N1CCOCC1 (centres undefined),>57,i
COCCn1c(=O)c(-c2cccc(C#N)c2)nc2cnc(N3CCOCC3)nc21,.,i
CC(=O)Nc1ccc(C(=O)c2ccccc2)cc1,.,i
Cn1c(=S)n(/N=C/c2ccc3c(c2)OCO3)c2ccccc21,>57,i
CCCc1cc(C(=O)NCc2ccccc2)no1,.,i
O=C(CSc1nnc(COc2cccc3cccnc23)o1)N1CCc2ccccc21,>57,i

Next section
smiles,Bst PK mod,TsaE inh
Cc1noc(C)c1C(=O)OCC(=O)NCCC1=CCCCC1,>57,i
O=c1n(CCCN2CCN(c3cccc(Cl)c3)CC2)nc2ccccn12,>26,i
Cn1c(CN2CCCCC2)nc2cc(NC(=O)c3cccs3)ccc21,>57,i
CC(C)n1c(SCC(=O)NCc2ccco2)nc2c1c(=O)n(C)c(=O)n2C,>57,i
Cc1nn(Cc2ccc(C(=O)Nc3nccs3)cc2)c(C)c1Cl,3.1*,i
CCOC(=O)c1cnn2c(C)cc(-c3ccc(F)cc3)nc12,.,i
O=C(NCCCN1CCN(CCCNC(=O)c2ccc3c(c2)OCO3)CC1)c1ccc2c(c1)OCO2,>57,i
O/N=C(\c1ccc2c(c1)OCCO2)C1CCCCC1,>26,.

Next part
smiles,Bst PK mod,TsaE inh
O=C(c1ccco1)N(Cc1nc2ccccc2c(=O)[nH]1)C1CCCC1,>57,i
O=c1c2ccccc2nc2n1CCC2,>57,?
Cc1nc(-c2cccc(S(=O)(=O)N3CCOCC3)c2)cs1,>57,i
Cc1ccccc1CN(c1ccc(C(N)=O)cc1)S(C)(=O)=O,>57,i
Cc1nc2c(C(=O)NCc3ccco3)cnn2c(C)c1Cc1ccc(F)cc1Cl,>57,i
COC(=O)NCC(c1cccnc1)N1CCN(c2ccccc2OC)CC1 (centres undefined),>57,i
COCCNC(=O)CCCn1c(=O)c2ccccc2n(CC(=O)NCCC2=CCCCC2)c1=O,>57,i
COc1ccc(Cl)cc1S(=O)(=O)n1nnc2ccccc21,>57,i

Next section:
smiles,Bst PK mod,TsaE inh
Cc1nc(SCc2ccccc2C)n[nH]1,.,i
CN(C(=O)COC(=O)COc1ccccc1F)C1CCS(=O)(=O)C1 (centres undefined),>57,i
O=C(Cn1nnc(-c2ccccc2)n1)OC1CCOC1=O (centres undefined),>57,i
Cc1cccc(N2CSC3=C(C#N)C(c4ccc(C)o4)CC(=O)N3C2)c1 (centres undefined),>57,i
CCCCCc1c(C)nc(N2CCc3ccccc3C2)[nH]c1=O,>57,i
COc1ccc(OC)c(-n2nnnc2SCC(=O)Nc2nc(C)c(C)s2)c1,>57,i
Cc1ccc(-c2nc3cc(NC(=O)C(C)C)ccc3o2)cc1,.,i
CC(NC(=O)C1CCC(=O)N1Cc1ccc(F)cc1)c1ccc2c(c1)OCCO2 (centres undefined),.,i

Continuation:
smiles,Bst PK mod,TsaE inh
O=C(NCc1ccccn1)Nc1cccc(NC(=O)NCc2ccccn2)c1,>57,i
O=C(O)CCc1nc(-c2ccccc2Cl)no1,>57,i
COc1nc(OC)nc(N2CCC(C(=O)NCc3ccco3)CC2)n1,>57,i
CCCC1(C(=O)OC)NC(c2ccc(OC)c(OC)c2)C2C(=O)N(c3ccc4c(c3)OCO4)C(=O)C21 (centres undefined),>57,i
CC(C)COC(=O)C(C#N)c1nc2ccccc2nc1N1CCN(Cc2ccccc2)CC1 (centres undefined),>57,i
